Source: PubChem
gsp ag: agonists of gsp mutant (McCune-Albright syndrome) | gsp mutant cells, cAMP HTRF, 30 min; control for the full effect not named in the record | Potency, µM (titrated, usually from 76.9 µM), for inactives: at the top dose activation (cAMP increase), usual class: activators | 340,000 compounds, 0.13% hits; active = well fitted activation curve with a large enough effect; inconclusive = small, poorly fitted or top-dose-only effect, or another doubt; inactive = no such curve, though single readings can be large or run the other way; cell line not stated here;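 note: phosphodiesterase inhibitor Ro 20-1724 added with compounds to block cAMP breakdown; potency is the fitted concentration of half-maximal effect; nearly all actives have a fitted effect of over 60% in size; about a fifth of the inactives were tested at one dose only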
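Cells in DMEM/10% FBS with G418 were pretreated with compounds in DMSO plus […] (300 uM stock) for 30 min at 37C. cAMP was measured by HTRF (cAMP-d2 plus anti-cAMP antibody-K) after 30 min at room temperature.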
gsp antagonist: antagonizes gsp, the McCune-Albright syndrome mutation; gsp-mutant cells, cAMP HTRF, 30 min; control for the full effect not named in the record; Potency, µM (top dose mostly 76.9 µM), inactives show top-dose activity change, negative = inhibition, most hits filed as inhibitors; 340,000 compounds, 0.4% hits; AID 624288; active = falling curve of any shape with a large fitted effect; inconclusive = falling curve, mostly with a smaller effect; inactive = flat or rising curve; cell line not stated here;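 note: intracellular cAMP measured with PDE inhibitor Ro 20-1724 present during compound exposure; potency is the fitted concentration of half-maximal effect; % is set by controls: 0 for no effect and ±100 for the full control effect; nearly all actives have a fitted effect of over 65% in size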
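Cells, 2000/well, grown 16–24 h in DMEM 10% FBS with 0.5 mg/ml G418, then compounds plus […] (300 uM addition stock), 30 min at 37C. cAMP read by HTRF (cAMP-d2 and anti-cAMP antibody-K in lysis buffer) after 30 min RT.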
Sfp PPTase inh: blocks B. subtilis Sfp PPTase activity | Biochemical Sfp PPTase activity, qHTS | Potency, µM, without a hit: max response, negative = inhibition, usual class: inhibitors | 310,000 compounds, 3.5% hits | AID 1490; active = well fitted inhibition curve with a large enough effect; inconclusive = small, poorly fitted or top-dose-only effect, or another doubt; inactive = no such curve, though single readings can be large or run the other way;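 note: the enzyme is Sfp with the accession as filed and its product quenches rhodamine fluorescence; potency is the fitted concentration of half-maximal effect; 0% = enzyme reaction without inhibitor and -100% = no enzyme wells; top concentration of the series not given in the record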
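After 15 min at room temperature with compound, 15 nM Sfp received 5 uM rhodamine-CoA plus 12.5 uM BHQ-2-ybbR (50 mM Hepes pH 7.6, 10 mM MgCl2). Rate came from the fluorescence difference over 30 min, ex 525/em 598 nm.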
Menin-MLL FL inh: inhibitors of human menin-MLL interaction, wild-type MLL peptide; Fluorescence polarization, fluorescein-MLL peptide displacement from menin; FP activity change, % at 61.4 µM; 290,000 tested, under 10 active; inconclusive = falling polarisation curve, or a change in total fluorescence; inactive = total fluorescence flat and polarisation flat or rising; no compound was filed as active; the % refers to the polarisation; negative = inhibition;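 note: % of control where 0% means no effect; inhibitors lower the polarisation; unlabelled MLL peptide was the positive control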
CtBP-E1A blk: inhibitors of CtBP/E1A interaction | AlphaScreen GST-E1A/His-CtBP binding, 1536-well; hits give low values; control for the full effect not named in the record | activity change, % (test concentration not listed) | 340,000 compounds, 0.49% hits; in the data active means activity change below about -65%; inconclusive means about -30% to -65%; inactive means above about -30%; note: % is set by controls: 0 for no effect and ±100 for the full control effect
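Steps: dispense buffer (Tris pH 8.0, NaCl 300 mM, TCEP 1 mM, BSA, Tween 20); add 5X protein mix (GST-E1A, His-CtBP, 125 nM each); pin 23 nL compound; 2 h at 37 °C, dark; add 5X beads (50 ug/mL); 1 h; read.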
TRPV1 PAM: enhances activation of the human vanilloid receptor TRPV1. potentiation, % at 8.33 µM. Q8NER1. TRPV1-expressing cells, Fluo-8 calcium influx, capsaicin EC20 potentiation; host cell line not named in the record; control for the full effect not named in the record. 320,000 compounds, 0.02% hits; active means potentiation above 80%; inconclusive means 30% to 80%; inactive means below 30%; note: 0% is about no effect
Target sequence (Q8NER1 whole entry, looked up): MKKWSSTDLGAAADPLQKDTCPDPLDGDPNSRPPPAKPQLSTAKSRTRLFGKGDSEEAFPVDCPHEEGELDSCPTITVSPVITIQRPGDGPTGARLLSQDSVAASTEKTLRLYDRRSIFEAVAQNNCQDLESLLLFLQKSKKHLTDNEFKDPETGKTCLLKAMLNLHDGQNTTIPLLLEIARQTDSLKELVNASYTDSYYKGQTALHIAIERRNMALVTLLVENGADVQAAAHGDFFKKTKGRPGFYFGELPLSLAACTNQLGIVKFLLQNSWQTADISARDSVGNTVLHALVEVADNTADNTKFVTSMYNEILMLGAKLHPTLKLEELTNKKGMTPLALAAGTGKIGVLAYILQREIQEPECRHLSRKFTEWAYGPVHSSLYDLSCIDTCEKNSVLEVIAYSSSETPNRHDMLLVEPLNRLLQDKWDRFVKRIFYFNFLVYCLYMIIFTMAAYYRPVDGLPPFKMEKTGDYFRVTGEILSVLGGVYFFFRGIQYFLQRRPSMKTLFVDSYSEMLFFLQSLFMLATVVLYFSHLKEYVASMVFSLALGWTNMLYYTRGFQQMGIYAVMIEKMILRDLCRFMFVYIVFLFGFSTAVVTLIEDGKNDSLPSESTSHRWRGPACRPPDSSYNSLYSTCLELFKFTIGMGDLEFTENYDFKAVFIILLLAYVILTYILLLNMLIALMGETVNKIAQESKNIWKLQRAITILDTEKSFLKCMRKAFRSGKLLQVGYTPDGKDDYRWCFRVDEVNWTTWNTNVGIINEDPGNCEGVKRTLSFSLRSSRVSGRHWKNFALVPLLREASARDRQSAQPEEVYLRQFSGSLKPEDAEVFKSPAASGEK
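Fluo-8 calcium influx in TRPV1-expressing cells, kinetic read (ex 480/em 520 nm). Compound added and read 3 min for agonist activity, followed by capsaicin at EC20 final and 2 min further read for enhancement.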
ClpP mod: qHTS Assay for Activators of ClpP | 340,000 compounds, 1.9% hits | purified B. subtilis ClpP, FRET peptide cleavage, 20 min | AID 651965, 2013 | Potency, µM (titrated, usually from 57.5 µM), for the others: at the highest dose activity change, negative = active; active = well fitted falling curve with a large enough effect; inconclusive = small, poorly fitted or top-dose-only effect; inactive = no such curve, though single readings can be large or run the other way; note: potency is the fitted concentration of half-maximal effect; the source files actives as falling curves though it sought activators and does not explain the sign; nearly all actives have a fitted effect of over 65% in size; many hits overshoot -100%
Target sequence (P80244 whole entry, looked up): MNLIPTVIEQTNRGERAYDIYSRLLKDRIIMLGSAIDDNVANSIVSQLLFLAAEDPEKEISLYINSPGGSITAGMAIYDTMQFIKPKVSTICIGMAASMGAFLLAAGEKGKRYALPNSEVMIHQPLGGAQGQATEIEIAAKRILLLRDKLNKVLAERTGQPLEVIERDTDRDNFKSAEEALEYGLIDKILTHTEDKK
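Purified B. subtilis ClpP, 10 microg/mL final in Tris/HCl pH8 with KCl, BSA, glycerol and Tween-20, cleaved an Abz/nitrotyrosine-quenched decapeptide. Fluorescence (ex 320, em 430) was read at 0 and 20 min at room temperature. Delta was normalized to 5.8 microM ADEP and DMSO/no-enzyme controls.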
* marks the source's active call; other numbers are inactive results; ? = inconclusive; . = no result given; & = joins results of further samples; [ ] = remark or other dose.

SMILES	gsp ag	gsp antagonist	Sfp PPTase inh	Menin-MLL FL inh	CtBP-E1A blk	TRPV1 PAM	ClpP mod
O=C(COC(=O)c1cnccn1)Nc1ccccc1-c1ccccc1	19.4%	11.6%	.	.	-4.0	2.8	-7.3%
N#CCCn1cnc2c(=S)nc[nH]c21	?	6.6%	?	4.6	3.2	3.4	0.4%
Cc1nc2nc(Cc3ccccc3)nn2c(C)c1Cl	14.9%	2.1%	7.0%	-1.3	-1.7	-2.9	-6.5%
N#Cc1ccc(COC(=O)c2cnc(Cl)c(Cl)c2)cc1	16.6%[15.4 µM]	-3.8%	9.7%	-8.8	1.4	7.6	.
COc1ccc(S(=O)(=O)N(C)CC(=O)NCc2cccnc2)cc1OC	-22.2%	5.5%	9.7%	3.9	0.9	-6.5	-0.5%
COc1cccc(NC(=S)N(CCC(C)C)C2CCN(C(C)=O)CC2)c1	0.0%	2.9%	-10.7%	4.1	.	4.9	-5.0%
Cc1cc(C(F)(F)F)nn1CC(=O)N1CCCCC1C (configuration not stated)	40.9%	-0.5%	14.1%	1.1	-0.4	1.0	0.7%
O=C(CCC(=O)N(CC(=O)NC1CCCCC1)Cc1ccc(F)cc1)Nc1nccs1	-0.9%[15.4 µM]	-23.3%	-3.9%	.	-10.2	-10.7	.
CN(CCc1ccccn1)C(=O)c1ccc(OC2CCN(CCc3ccccc3)CC2)cc1	-37.9%[inhibitor]	4.8%	5.6%	-0.9	-3.3	3.6	-1.0%
COc1cc(-c2nnc(COC(=O)c3c4c(nc5ccccc35)CCCC4)o2)cc(OC)c1OC	.	.	6.3%	5.5	.	-23.5	.
CC(=O)NN1C(=O)c2ccccc2NC1c1ccc([N+](=O)[O-])o1 (configuration not stated)	1.2%	13.7%	16.5%	3.6	-1.5	-2.1	1.8%
O=[N+]([O-])c1ccc(-n2cccn2)c(-c2nn[nH]n2)c1	-7.1%	5.8%	-15.9%	0.2	.	-12.0	0.5%
COc1ccc(CCNC(=O)CSc2ccc3nnc(CCNC(=O)c4ccccc4)n3n2)cc1OC	5.2%	5.3%	1.3%	.	17.2	15.1	-1.2%
CCOc1ccc(OCC)c(NC(=O)C2CCN(S(=O)(=O)c3cccc4nonc34)CC2)c1	-6.2%	2.1%	18.1%	-3.4	5.4	-13.5	-1.5%
CCOC(=O)N/N=C/c1cccnc1	10.7%[15.4 µM]	.	15.4%	1.2	25.9	-1.2	.
CCOc1ccccc1N1CCN(C(=O)CC(C)C)CC1	-37.6%[inhibitor]	7.4%	11.7%	1.4	0.0	-3.1	-1.4%
COc1ccccc1NC(=O)C1=C(C)Nc2nnnn2C1c1ccccc1OC (configuration not stated)	-2.0%	-8.1%	10.7%	2.0	5.1	21.7	-9.9%
Cc1ccnc(NS(=O)(=O)c2ccc3c(c2)CCO3)c1	.	.	-17.9%	-3.0	.	5.0	.
NS(=O)(=O)c1cccc(NC(=O)CSc2nnc(-c3ccccc3F)n2C2CC2)c1	-17.9%[15.4 µM]	-1.2%	-8.8%	2.9	-3.1	13.7	.
CCC(SC1=N/C(=C/c2ccccc2OC)C(=O)N1c1ccccc1)C(=O)Nc1cc(C)on1 (configuration not stated)	?	10.6%	22.1%	4.3	3.2	-27.0	-3.7%
CCOc1cc(/C=N/Nc2nc(-c3cccc(S(=O)(=O)N4CCCC4)c3)cs2)ccc1O	2.1%	?	?	1.8	?	4.1	-8.6%
C[C@@H]1CN([C@H](C)CO)C(=O)CCCn2nncc2CO[C@H]1CN(C)C(=O)CCC(F)(F)F	?	.	.	.	2.6	.	1.9%
O=C(N/N=C/c1ccccc1C(F)(F)F)c1ccc2nc[nH]c2c1	14.2%	-4.1%	8.4%	0.0	-16.7	-3.2	-4.2%
C=CCN=C1S/C(=C\c2ccc(Cl)cc2)C(=O)N1CC=C	51.9%	-8.2%	-4.9%	0.7	27.6	1.5	.
C/C(=C\c1ccccc1)C(=O)NCc1ccco1	-53.1%[inhibitor]	7.9%	11.7%	-0.7	.	-6.9	1.6%

Single values from above:
For CtBP-E1A blk, Cc1nc2nc(Cc3ccccc3)nn2c(C)c1Cl reads -1.7
For Menin-MLL FL inh, COc1cc(-c2nnc(COC(=O)c3c4c(nc5ccccc35)CCCC4)o2)cc(OC)c1OC reads 5.5
For TRPV1 PAM, N#Cc1ccc(COC(=O)c2cnc(Cl)c(Cl)c2)cc1 reads 7.6

More records follow.
SMILES	gsp ag	gsp antagonist	Sfp PPTase inh	Menin-MLL FL inh	CtBP-E1A blk	TRPV1 PAM	ClpP mod
CCCN(CC1CC1)C(=S)Nc1ccc(C(C)=O)cc1	?	-3.8%	17.3%	-3.5	-0.7	18.9	7.6%
CCOC(=O)c1c(SCCN2CCCCC2)n(-c2ccccc2)c(=S)n(-c2ccccc2)c1=O	3.6%	9.9%	.	.	1.9	.	1.4%
Cc1ccccc1Cn1cccc1/C=C1/C(=N)N2C=CSC2=NC1=O	-13.3%	-5.2%	0.7%	?	-1.2	-6.1	1.4%
O=C(Nc1cccc2[nH]ncc12)c1ccc(F)cc1	0.1%	12.8%	29.5%	5.1	4.9	-0.3	0.3%
COCCN1CC(=O)N(c2cccc(C)c2C)C(c2ccc(Cl)cc2)C1=O (configuration not stated)	27.1%	0.0%	19.0%	0.9	-0.4	9.4	0.3%
CCNc1c(NC(=O)C2CCC(C)CC2)c(=O)oc2ccccc12 (configuration not stated)	-1.3%	2.1%	9.8%	-1.5	1.8	27.3	.
O=C(CN1CCCC1c1ccc2c(c1)OCCO2)NC(=O)Nc1ccccc1F (configuration not stated)	-6.8%	-10.9%	.	.	-2.3	-11.6	-1.8%
CCOC(=O)c1sc(NC(=O)Nc2ccc(F)cc2)nc1C	6.1%[15.4 µM]	-3.1%	-19.7%	2.0	3.1	-4.7	1.3%
C=CCOc1ccnc(-c2ccccc2)n1	-2.0%[15.4 µM]	-6.0%	13.6%	1.3	14.2	-0.8	.
CC1CCN(C(=O)Cn2c(=O)n(Cc3ccc4c(c3)OCO4)c(=O)c3ccccc32)CC1	9.3%	-5.1%	10.3%	-2.1	-5.4	6.7	-15.8%
Cc1cc(/C=C2\SC(=S)NC2=O)c(C)n1C1CC1	5.5%	?	-29.4%	?	?	-5.4	0.0%
O=S(=O)(NCCc1ccc2c(c1)OCCO2)c1cccs1	-8.8%	4.7%	2.9%	1.2	-3.8	-12.6	-3.4%
CCC(Sc1nc2ccc(C)cc2[nH]1)C(=O)O (configuration not stated)	?	6.0%	9.9%	5.5	12.1	7.0	-9.0%
O=C(C1CC=CCC1)N1CCC(CO)(Cc2ccc(Cl)cc2)CC1 (configuration not stated)	22.4%	-9.2%	5.8%	-3.7	.	-5.4	-0.4%
CCCCN(C)CCNC(=O)c1cc2c(=O)[nH]c3ccccc3c2n1C	-2.6%[15.4 µM]	13.3%	-1.2%	-22.4	0.0	?	0.0%
O=C(NCCN1CCCCC1)/C(=C/c1ccco1)NC(=O)c1ccccc1	-38.6%[15.4 µM]	-10.7%	11.4%	-2.0	-5.5	3.0	.
C=CCC1[C@H](C)[C@H]2[C@@H]3CC[C@@H](C3)[C@H]2CN1S(=O)(=O)c1ccc(C)cc1 (some centres not stated)	.	-11.0%	.	.	22.2	.	-1.6%
COc1cccc(S(=O)(=O)Nc2ccc(C(=O)N3CCCCCC3)cc2)c1	-15.0%	-18.6%	-19.6%	0.5	-13.1	5.6	.
O=CN1N=C(c2ccccc2)CC1c1ccccc1[N+](=O)[O-] (configuration not stated)	4.9%	-50.3%	5.0%	7.1	5.0	-24.8	1.0%
CCCCn1c(N)c(N(CCOC)C(=O)c2oc3ccc(OC)cc3c2C)c(=O)[nH]c1=O	-4.1%	8.6%	15.3%	.	-3.5	17.7	-0.9%
CC(C)c1cc(C(=O)NC2CCCc3c2cnn3-c2ccccc2F)no1 (configuration not stated)	6.1%	-13.5%	-12.0%	-1.8	2.1	14.4	-0.7%
O=C(NCc1ccc2c(c1)OCO2)C(=O)NCC1OCCN1S(=O)(=O)c1ccc(Br)cc1 (configuration not stated)	25.1%	1.5%	3.6%	-3.7	-7.1	25.5	-0.3%
N#CC1CC(c2ccc([N+](=O)[O-])cc2)=NN1c1ccc([N+](=O)[O-])cc1 (configuration not stated)	-59.2%[inhibitor]	1.2%	-2.0%	?	-1.1	0.1	-0.9%
CC1CCCCC1NC(=S)NC(=O)c1cccs1 (configuration not stated)	1.4%	-1.1%	9.9%	3.1	3.3	5.9	0.3%
O=C(NCC1CCCO1)c1cc2c(=O)[nH]c3ccccc3c2s1 (configuration not stated)	21.9%	-27.1%	12.1%	7.9	5.5	-2.4	4.5%
SMILES	gsp ag	gsp antagonist	Sfp PPTase inh	Menin-MLL FL inh	CtBP-E1A blk	TRPV1 PAM	ClpP mod
O=S(=O)(Cc1ccc(Cl)cc1)NCc1cccnc1	-1.6%	10.5%	-28.1%	1.8	8.8	2.1	-0.2%
COc1ccccc1C(=O)O[C@H]1[C@H](Cc2ccccc2)NS(=O)(=O)[C@H]2C[C@@H]3C=C[C@]12O3	?	2.2%	.	.	-3.1	-15.2	-6.1%&-10.3%
O=C(c1ccc(S(=O)(=O)N2CCC(c3nc4ccccc4s3)CC2)cc1)N1CCCCC1	4.2%	5.1%	.	.	5.0	.	0.2%
O=C1CC(C2CCCO2)C(=O)N1c1ccc(Cl)c(Cl)c1 (configuration not stated)	-24.8%	-3.9%	11.6%	0.9	4.7	-4.9	.
O=C(CSc1nnc(CNC(=O)c2ccco2)o1)Nc1ccc(Cl)cc1	20.4%	-4.4%	5.9%	-0.7	6.8	0.6	0.4%
CCOc1ccccc1NC(=S)NCC1CCCO1 (configuration not stated)	7.9%[15.4 µM]	8.5%	-8.8%	-0.6	-10.2	8.4	-1.7%
Cc1cc(C(=O)N2CCN(c3ccccc3Cl)CC2)c(C)o1	8.9%	3.9%	.	.	14.9	.	.
COc1cc(C2NC(=O)NC(C)=C2[N+](=O)[O-])cc(OC)c1OC (configuration not stated)	12.3%	6.9%	9.1%	3.9	5.1	-1.9	0.4%
